Screening results from PubChem.
MT1-MMP act inh = blocks activation of human MT1-MMP. P50281. AID 651647. HT1080 RFP-PRO-GFP cells, GFP/RFP ratio fluorescence, overnight; percent of plate control window, DMSO zero. GFP/RFP ratio change, % at 20 µM. hit rate 0.061% among 360,000;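 active = GFP/RFP ratio change of at least 30% with cell ATP level not reduced by more than half and red fluorescence within 50% of control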; note: strong numbers were not always called active
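Assay system: HT1080 RFP-PRO-GFP cells. Benchmarks: DMSO vehicle wells and RFP-L50D-GFP reporter cell wells. Times: overnight cell settling, then overnight compound exposure, 37 °C, 5% CO2. Compound: 20 µM single dose, 1% DMSO. Read-out basis: GFP/RFP fluorescence ratio.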
Rce1 inh = inhibitors of yeast Ras-converting enzyme; Q03530; yeast membranes, quenched prenylated peptide cleavage fluorescence; calls only; hit rate 0.27% among 290,000; AID 2563;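 active = fall in fluorescence gain of 50% or more versus controls, with final raw signal at or below 3038400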;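 note: plate controls were neutral control wells for no effect and wells lacking membranes for full effect; tested at 10 µM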
Target sequence (Q03530 whole entry, looked up): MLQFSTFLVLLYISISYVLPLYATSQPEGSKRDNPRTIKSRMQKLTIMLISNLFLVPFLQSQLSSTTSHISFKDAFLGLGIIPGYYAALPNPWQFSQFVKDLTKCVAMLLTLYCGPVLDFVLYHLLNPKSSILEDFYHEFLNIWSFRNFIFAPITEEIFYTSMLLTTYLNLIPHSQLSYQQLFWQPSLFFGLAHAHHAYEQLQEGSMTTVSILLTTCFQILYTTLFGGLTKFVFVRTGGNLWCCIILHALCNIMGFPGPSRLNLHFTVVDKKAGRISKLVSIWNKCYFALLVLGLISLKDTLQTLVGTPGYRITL
eIF4H inh = inhibitors of RNA binding by human eIF4H; AID 2012; Q15056; eIF4H fluorescence polarization binding assay; inhibition, % at 35 µM; hit rate 0.94% among 290,000;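 active = 50% or more with normal probe brightness, or confirmed in later tests; about a fifth of its hits are not listed in these tables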;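 note: calls also rest on retests at 20 µM and on dose response follow-up; 0% = protein and probe with vehicle and 100% = probe without protein; strong numbers were not always called active; many hits fall short of the cut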
PABP FP inh = blocks human PABP binding to poly(A) RNA; hit rate 1% among 290,000; P11940; inhibition, % at 35 µM; fluorescence polarization;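 active = 50% or more with normal probe brightness, or confirmed in later tests; about a fifth of its hits are not listed in these tables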;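 note: calls also rest on retests at 20 µM and on dose response follow-up; controls were probe without protein and protein plus probe with vehicle; some compounds called inactive have numbers as strong as hits; many hits fall short of the cut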
Target sequence (P11940 whole entry, looked up): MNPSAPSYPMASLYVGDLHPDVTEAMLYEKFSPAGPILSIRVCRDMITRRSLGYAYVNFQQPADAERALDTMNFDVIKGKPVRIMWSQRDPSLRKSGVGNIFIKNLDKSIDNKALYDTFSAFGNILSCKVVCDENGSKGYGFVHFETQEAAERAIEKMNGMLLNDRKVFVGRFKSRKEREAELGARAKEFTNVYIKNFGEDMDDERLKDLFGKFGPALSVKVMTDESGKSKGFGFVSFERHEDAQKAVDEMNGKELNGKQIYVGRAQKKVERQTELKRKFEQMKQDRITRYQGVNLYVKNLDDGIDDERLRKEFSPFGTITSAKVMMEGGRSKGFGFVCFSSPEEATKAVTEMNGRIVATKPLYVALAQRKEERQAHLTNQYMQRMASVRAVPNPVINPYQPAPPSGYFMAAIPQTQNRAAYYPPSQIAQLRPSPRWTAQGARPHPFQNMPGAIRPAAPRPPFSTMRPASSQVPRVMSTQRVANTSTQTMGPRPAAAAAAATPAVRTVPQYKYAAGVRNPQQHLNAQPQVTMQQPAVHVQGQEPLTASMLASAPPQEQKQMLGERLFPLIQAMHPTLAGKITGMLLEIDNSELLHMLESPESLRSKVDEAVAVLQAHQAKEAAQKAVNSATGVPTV
HIV Env fusion = HIV envelope-mediated fusion inhibition. HeLa-JRFL Env/CEM21 cell fusion, luciferase. inhibition, % at 12.3 µM. AID 651610. hit rate 1.1% among 360,000;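 active = mean replicate inhibition score of at least 50 and every replicate individually at or above 50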;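 note: 0% = plate neutral controls and 100% = maraviroc near 300 nM; one replicate is shown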
Yeast UUG start = yeast start codon fidelity modulation; S. cerevisiae UUG-firefly luciferase reporter, luminescence/redox ratio; activity score, % at 18.7 µM; hit rate 0.13% among 350,000; AID 602363;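 active = replicate mean at a twofold rise or more, about +100% in these data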;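 note: firefly luciferase made from a UUG start codon reports start codon fidelity; reporter light over untreated wells divided by growth signal over untreated wells; some hits fall short of that in this replicate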
CSC inhib = cancer stem cell inhibition; cancer stem cell-like cells viability, luminescence; inhibition, % at 7.5 µM; hit rate 1.1% among 300,000; AID 2717;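 active = mean at 75% or more and at least half the replicates too; tested in HMLE shEcad cells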;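 note: 0% = median of negative and 100% = median of positive control wells; the first replicate is given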
eIF4H inh retest = further read-out of eIF4H inh, marked with its call; inhibition, %; compound at 20 µM; confirmation average;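 mean of two retest wells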
PABP FP inh retest = also measured in PABP FP inh; calls as there; inhibition, %; compound at 20 µM; confirmation repeats;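 mean of two retest wells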
MT1-MMP act inh RFP = recorded beside MT1-MMP act inh, whose call it bears; RFP signal change, %; measured here: RFP expression control read;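 0 = vehicle wells; hits needed this value within 50% of zero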
The depositor's hits bear a star; i = inactive; x = no result given.

SMILES | MT1-MMP act inh | MT1-MMP act inh RFP | Rce1 inh | eIF4H inh | PABP FP inh | HIV Env fusion | Yeast UUG start | CSC inhib | others
CC(C)CCNC(=O)c1cc2c(=O)[nH]c3ccccc3c2s1 | 7 | 2 | i | -6 | -2 | -11 | -13 | -10
O=C(Cc1ccccc1)NNC(=O)C1CC=CCC1 (stereo not drawn) | 4 | 2 | i | -3 | 6 | 13 | -12 | -3
Cc1nn(-c2ccccc2)c2sc(C(=O)N(CC(=O)NC(C)(C)C)Cc3ccco3)cc12 | -3 | -12 | i | 4 | 4 | x | -11 | -8
COc1ccc(NS(=O)(=O)c2ccc(NC(=S)NC(=O)c3cccc(F)c3)cc2)nn1 | -1 | 1 | i | -2 | 5 | -24 | -8 | -4
O=C(NCC1CCCO1)c1cccc(S(=O)(=O)Nc2ccccc2Cl)c1 (stereo not drawn) | 0 | 3 | x | x | x | -10 | -2 | x
Cc1ccc(C(=O)NC(=S)N2CC(C)OC(C)C2)cc1[N+](=O)[O-] (stereo not drawn) | -1 | 3 | i | 2 | 0 | x | -22 | -4
CC(NC(=O)C1CC12CCC2)c1ccccc1 (stereo not drawn) | 1 | 6 | i | -13 | 46 | -1 | x | -12
Cc1ccc(S(=O)(=O)c2c(C)nn(C(C)(C)C)c2OC(=O)c2cccs2)cc1 | -2 | -5 | i | 8 | -8 | x | -4 | 84*
COC(=O)c1cc(N=Nc2c(C)[nH]c3ccccc23)cc(C(=O)OC)c1 | -1 | 4 | i | 6 | 6 | 4 | -13 | -6
COc1cccc(C=NNC(=O)C(C)SC(C)C(=O)NN=Cc2cccc(OC)c2)c1 (stereo not drawn) | 2 | -1 | x | x | x | -1 | -22 | x
COc1ccc(C(=O)N(C)C2CCCN(Cc3ccccc3F)C2)cc1C (stereo not drawn) | -5 | -1 | i | 1 | 2 | -2 | -8 | 4
COc1ccc2oc(-c3cccc(NC(=O)CSc4ccc(Cl)cc4)c3)nc2c1 | 5 | -6 | i | 0 | 1 | -38 | x | 19
NC(=O)CSc1nc2ccccc2c(=O)n1-c1ccccc1 | -2 | 0 | i | -5 | -3 | 11 | -12 | -12
C=CCOCCN1C(=O)C2C3C=CC(C2C1=O)C1C2C(=O)N(CCOCC=C)C(=O)C2C31 (stereo not drawn) | 4 | 3 | i | 80 | -4 | 3 | x | -8 | eIF4H inh retest=-6;PABP FP inh retest=-5
CN(C)S(=O)(=O)Oc1ccccc1C(=O)Nc1ccc(F)cc1F | -3 | -1 | i | -5 | -14 | -7 | x | -15
O=C(Nc1ccccc1NC(=O)C1CCCO1)c1ccco1 (stereo not drawn) | 6 | 8 | i | -7 | 3 | -12 | x | 5
COc1cc(NC(=O)COc2ccc(-n3cnnn3)cc2)c(OC)cc1Cl | 9 | -1 | i | 13 | 7 | -41 | -19 | -11
COc1cccc(C(=O)/C=C/Nc2ccc(S(=O)(=O)Nc3ncccn3)cc2)c1 | 0 | -1 | i | 6 | -8 | 12 | x | 2
CCCCNC(=O)C1(C)CCN1C(=O)c1cccnc1Oc1ccccc1 (stereo not drawn) | 1 | 6 | x | x | x | -19 | -1 | x
CC1(C)CC(NC(=O)C2CCN(S(=O)(=O)c3ccc(Cl)c(C(F)(F)F)c3)CC2)CC(C)(C)N1 | 1 | 6 | x | x | x | 6 | -7 | x
CCOc1ccc(-c2ccc(SCC(=O)NCC3CCCO3)nn2)cc1 (stereo not drawn) | 0 | 1 | i | -3 | -8 | -27 | x | -3
Cc1ccc(S(=O)(=O)N2CCCCC2)cc1NC(=O)CSc1nnc(N)s1 | -2 | 2 | i | 3 | 6 | 14 | x | 7
O=C(OCC#CCSc1nnc(-c2cccc3ccccc23)o1)c1ccc2ccccc2c1 | 5 | 4 | x | x | x | -19 | -13 | x
O=[N+]([O-])c1ccc2c(c1)[nH]c(=S)n2-c1ccccc1 | -3 | -3 | i | -8 | -4 | 7 | x | 22
Cc1oc2cc3oc(=O)c(CCC(=O)NC4CC4)c(C)c3cc2c1C | 6 | -14 | i | 1 | -4 | x | -6 | -7
SMILES | MT1-MMP act inh | MT1-MMP act inh RFP | Rce1 inh | eIF4H inh | PABP FP inh | HIV Env fusion | Yeast UUG start | CSC inhib | others
Cc1ccc2nc(N3CCN(C(=O)c4cccs4)CC3)c(C#N)cc2c1 | -15 | -13 | i | -8 | 21 | x | -9 | -7
CC(=O)c1cccc(NS(=O)(=O)c2ccc(N/C=C/C(=O)c3ccc(F)cc3)cc2)c1 | -10 | -29 | i | -4 | 19 | 28 | x | 1
CC(=O)c1cccc(N2C(=O)CC(N3CCN(S(=O)(=O)c4ccccc4F)CC3)C2=O)c1 (stereo not drawn) | -4 | 1 | x | x | x | -17 | -19 | -15
S=C(NCc1ccccc1)NCc1ccc(Cl)cc1 | 0 | -1 | i | -5 | 12 | 19 | -16 | -9
O=S(=O)(c1ccc(OC(F)(F)F)cc1)N1CCC(O)(c2cccc(C(F)(F)F)c2)CC1 | -1 | -7 | i | -6 | -10 | 19 | 1 | 29
O=C(Nc1cccc(CCc2ccccn2)c1)c1cc(F)c(F)cc1Cl | 4 | -6 | i | -2 | -10 | x | x | -11
NC(=O)C1CCN(C(=O)CCC(=O)c2ccc(F)cc2)CC1 | 1 | 5 | i | -7 | -3 | 0 | -11 | 1
CC1(C)C(=O)Nc2ccccc2N1C(=O)CN1C(=O)c2ccccc2C1=O | 5 | 5 | i | -11 | 3 | -47 | -5 | -8
Cc1ccc(C(=O)CNc2cc(C)ccc2C)cc1 | 0 | 3 | i | 6 | 0 | 2 | -19 | -6
Cc1sc(NC(=S)NC(=O)c2ccc(C(C)(C)C)cc2)c(C#N)c1C | 0 | 2 | i | -9 | -3 | -46 | -1 | 53
Cc1ccc(S(=O)(=O)NCC(=O)N(CCc2ccccc2)CC(=O)NCc2ccco2)cc1 | 1 | -3 | i | 3 | 5 | x | -12 | x
COc1cccc(OC)c1C(=O)Nc1ccc(S(=O)(=O)Nc2cc(C)nc(C)n2)cc1 | 3 | 4 | i | -3 | -1 | -33 | -3 | -6
Cc1cc(N2CCOCC2)nc2ccc(NC(=S)NCCC(C)C)cc12 | 10 | -5 | i | 2 | -3 | -18 | -11 | 49
CN1C(=O)C(C)(C)c2cc(S(=O)(=O)N3CCC(C(=O)Nc4ccc(Cl)cc4)CC3)ccc21 | 3 | 2 | i | -9 | -5 | 9 | -33 | 17
CC(=O)NC1=NN(C(C)=O)C(C)(c2ccc(Br)cc2)S1 (stereo not drawn) | 0 | 3 | i | 12 | -6 | -8 | -12 | -8
COCCN(C(=O)COC(=O)c1cccc2ccccc12)c1c(N)n(Cc2ccccc2)c(=O)[nH]c1=O | -1 | 1 | i | -12 | 1 | -21 | 9 | -16
CN(Cc1ccccc1)C(=O)CCSc1nc(-c2ccc3c(c2)OCO3)cc(C(F)(F)F)n1 | -11 | -13 | i | -1 | -5 | x | -5 | 31
Cc1cccc(N2CCN(c3ccc(N4C(=O)CCCC4=O)cc3[N+](=O)[O-])CC2C)c1 (stereo not drawn) | 0 | -4 | i | -5 | 0 | 29 | -5 | 15
Clc1ccc(SCCCCN2CCNCC2)cc1 | -1 | 3 | i | -6 | 4 | 32 | -13 | x
COc1ccc(CNc2nc3ccccc3n2CCN2CCOCC2)cc1 | -8 | 4 | i | 10 | 1 | 15 | -14 | -10
O=C(NCCOc1ccccc1)c1ccc2n[nH]nc2c1 | -2 | 0 | x | x | x | -15 | -19 | 10
O=C(Nc1ccc(-c2nc3ccccc3[nH]2)cc1)c1ccc(N2C(=O)CCC2=O)cc1 | 0 | 5 | i | -6 | 6 | -2 | x | 3
CCN(CC)CCCNC(=O)Cn1cc2c(n1)CCC(C)C2 (stereo not drawn) | 1 | 5 | i | -7 | 10 | 8 | -11 | -18
CC(=O)Nc1nc(C)c(-c2csc(Nc3cccc(C(C)=O)c3)n2)s1 | -2 | -6 | i | -2 | -2 | 29 | -20 | -7
Cc1ccc(S(=O)(=O)N2c3ccccc3CC2C)cc1 (stereo not drawn) | -3 | 0 | i | -2 | -6 | 22 | x | 28

As a short view, 5 of the compounds above.
SMILES | MT1-MMP act inh | MT1-MMP act inh RFP | Rce1 inh | eIF4H inh | PABP FP inh | HIV Env fusion | Yeast UUG start | CSC inhib | others
Cc1ccc2nc(N3CCN(C(=O)c4cccs4)CC3)c(C#N)cc2c1 | -15 | -13 | i | -8 | 21 | x | -9 | -7
CC(=O)c1cccc(NS(=O)(=O)c2ccc(N/C=C/C(=O)c3ccc(F)cc3)cc2)c1 | -10 | -29 | i | -4 | 19 | 28 | x | 1
CC(=O)c1cccc(N2C(=O)CC(N3CCN(S(=O)(=O)c4ccccc4F)CC3)C2=O)c1 (stereo not drawn) | -4 | 1 | x | x | x | -17 | -19 | -15
S=C(NCc1ccccc1)NCc1ccc(Cl)cc1 | 0 | -1 | i | -5 | 12 | 19 | -16 | -9
O=S(=O)(c1ccc(OC(F)(F)F)cc1)N1CCC(O)(c2cccc(C(F)(F)F)c2)CC1 | -1 | -7 | i | -6 | -10 | 19 | 1 | 29

Other structures
SMILES | MT1-MMP act inh | MT1-MMP act inh RFP | Rce1 inh | eIF4H inh | PABP FP inh | HIV Env fusion | Yeast UUG start | CSC inhib | others
COc1ccc(-n2nnnc2SCC(=O)N2CCCc3ccccc32)cc1OC | -3 | 0 | i | -4 | -13 | 18 | -14 | -7
COc1ccc(S(=O)(=O)N2CCCCCC2)cc1NC(=O)CN(C)Cc1ccc2c(c1)OCO2 | -7 | -19 | x | x | x | 58* | -11 | x
COc1cc(SC)ccc1C(=O)Nc1ccon1 | 2 | 4 | i | -2 | 0 | -453 | -2 | -19
O=C(CSc1nnc(CCc2nc3ccccc3[nH]2)n1-c1ccccc1)NCc1ccccc1 | 7 | 2 | i | -5 | -2 | x | x | -14
COCCN(C/C=C/c1ccccc1)C/C=C/c1ccccc1 | 1 | 4 | i | -6 | 0 | 5 | -5 | -3
COc1ccccc1C(=O)Nc1ncc2c(n1)CC(c1ccco1)CC2=O (stereo not drawn) | -1 | 2 | i | 74* | 37* | x | 2 | 0 | eIF4H inh retest=100*;PABP FP inh retest=56*
NS(=O)(=O)c1cc2c(cc1Cl)NC(C1CC3C=CC1C3)NS2(=O)=O (stereo not drawn) | 1 | 3 | x | x | x | -6 | -5 | -7
CC1CCCCN1CCCNc1ccc(C(CC(N)=O)NC(=O)Cc2ccc(Cl)cc2)cc1[N+](=O)[O-] (stereo not drawn) | 0 | 0 | i | 1 | 2 | 18 | -12 | -9
C=C1CCC[C@]2(C)C[C@H]3OC(=O)C(CNC(C)CCCC(C)C)[C@H]3CC12 (stereo partly drawn) | 0 | -5 | i | 4 | -10 | 44 | -6 | 14
COc1ccc(N(CC(=O)NCCc2ccc(S(N)(=O)=O)cc2)S(=O)(=O)c2c(C)noc2C)cc1 | -2 | 3 | i | -6 | -14 | 3 | -12 | -6
Brc1ccc(CSc2ncn[nH]2)cc1 | 0 | 1 | i | -4 | -1 | x | -11 | x
O=C(CN(c1ccccn1)S(=O)(=O)c1ccccc1)Nc1ccccc1 | 1 | 2 | i | -32 | 2 | -4 | x | -1
Cc1ccc(S(=O)(=O)N2CCC(C(=O)N[C@@H](C)C(=O)Nc3ccc4c(c3)OCO4)CC2)cc1 | 3 | 6 | i | 5 | 1 | -42 | -6 | 7
CN(C)c1ccc(C(=O)c2ccccc2C(=O)O)c(O)c1 | -6 | -3 | i | 6 | 16 | -21 | 4 | 12
CC(=O)Nc1nc(CC(=O)c2ccccc2)cs1 | 3 | 3 | i | -5 | -4 | -7 | -3 | -11
CCNC(=O)c1ccccc1NC(=O)c1cccc(S(=O)(=O)N2CCC(C)CC2)c1 | -5 | -24 | i | -6 | -4 | x | -1 | -15
